# From PubChem BioAssay
# Ecoli rRNA inh = inhibits bacterial ribosomal RNA function over humanized ribosomes | E. coli WT GFP vs humanized-ribosome RFP mutants, fluorescence, 24 h; stronger effect = lower value; DMSO median 0, no signal -100 | GFP signal change (wild-type ribosome), % (concentration not given with the values) | actives 1.6% (n = 350,000);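 active = significant combined selectivity score with lowered wild-type GFP, culture density cut under 30%, mutant RFP and density less affected; inactive = any of these conditions unmet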; also: one replicate is shown; some compounds called inactive have numbers as strong as hits
# FGF22 binding = FGF22 (human) thermal shift binding | actives 1.5% (n = 340,000) | recombinant FGF22 thermal shift, SYPRO orange fluorescence; percent of sucrose octasulfate shift, DMSO zero | calls only at 9.99 µM;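 active = melting point raised past a set limit in the mean and every replicate; three in four hits are not shown here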
# Target sequence (Q9HCT0 whole entry, looked up): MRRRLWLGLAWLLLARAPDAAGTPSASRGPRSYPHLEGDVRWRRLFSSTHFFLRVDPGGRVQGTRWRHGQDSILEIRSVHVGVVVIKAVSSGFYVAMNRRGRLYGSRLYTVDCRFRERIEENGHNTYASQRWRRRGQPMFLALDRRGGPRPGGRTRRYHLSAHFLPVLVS
# AF4-AF9 inh = blocks AF4 peptide binding to human AF9. inhibition, % at 10 µM. AlphaScreen, biotin-AF4 peptide binding to FLAG-AF9. actives 0.47% (n = 350,000). P42568;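 active = every replicate reaching a set inhibition limit, whatever the replicate mean, cut at about 25% in these data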;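 also: 0% = plate neutral control median and 100% = total signal loss; the record names both 10 and 1 µM as test concentration; the first replicate is given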
# Target sequence (P42568 whole entry, looked up): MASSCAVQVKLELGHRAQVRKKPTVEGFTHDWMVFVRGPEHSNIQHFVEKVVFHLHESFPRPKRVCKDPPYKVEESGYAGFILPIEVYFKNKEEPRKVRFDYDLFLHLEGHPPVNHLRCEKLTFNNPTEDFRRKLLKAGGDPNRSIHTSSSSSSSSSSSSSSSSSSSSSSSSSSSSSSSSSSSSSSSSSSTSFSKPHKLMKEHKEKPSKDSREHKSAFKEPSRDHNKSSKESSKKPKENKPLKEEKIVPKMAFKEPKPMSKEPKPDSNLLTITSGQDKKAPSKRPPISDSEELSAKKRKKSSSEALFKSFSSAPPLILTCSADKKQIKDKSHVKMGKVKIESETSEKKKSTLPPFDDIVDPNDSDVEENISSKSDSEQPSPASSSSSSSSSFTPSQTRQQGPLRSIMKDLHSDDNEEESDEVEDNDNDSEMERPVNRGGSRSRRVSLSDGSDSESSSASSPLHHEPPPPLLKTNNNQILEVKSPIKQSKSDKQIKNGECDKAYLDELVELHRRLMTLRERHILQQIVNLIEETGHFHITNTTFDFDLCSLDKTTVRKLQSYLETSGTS
# Ecoli rRNA inh OD600 = recorded beside Ecoli rRNA inh, whose call it bears; OD600 change, %; measured here: OD600 growth;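 optical density of the mix in the first replicate; 0 = DMSO median and -100 = no signal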
# Ecoli rRNA inh RFP = further read-out of Ecoli rRNA inh, marked with its call; RFP signal change, %; measured here: RFP humanized mutant strains;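 first replicate; 0 = DMSO median and -100 = no signal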
# * marks the source's active call; other numbers are inactive results; i = inactive; & = joins results of further samples.
SMILES,Ecoli rRNA inh,Ecoli rRNA inh OD600,Ecoli rRNA inh RFP,FGF22 binding,AF4-AF9 inh
COC(=O)C[C@@H]1CC[C@@H]2[C@@H](COc3ccc(NC(=O)Nc4cc(C)cc(C)c4)cc3C(=O)N2C)O1,-4.2,-19.4,2.1,i,4.7
CCc1nc2ccc(C(=O)N(C)CCCN(C)C)cn2c1N(C)CCCc1ccccc1,6.6,9.9,-1.6,i,4.7
C[C@@H](NC(=O)C[C@H]1C=C[C@H](NC(=O)Cc2ccccn2)[C@@H](CO)O1)c1ccccc1,3.5,7.4,-0.6,i,1.1
N#C[C@@H]1[C@H](c2ccccc2C2=CCCCC2)[C@H](CO)N1C(=O)C1CCOCC1,-0.1,9.1,-0.5,i,0.9
O=S1(=O)N[C@@H](Cc2ccccc2)COc2cc(NC3CC3)ccc21,-6.0,1.9,-2.8,i,-4.0
COc1ccc(S(=O)(=O)Nc2cccc3c2O[C@H](CN(C)S(=O)(=O)c2cccs2)[C@H](C)CN([C@H](C)CO)C3=O)cc1,-1.8,-4.4,-2.1,i,1.2
CC(=O)N(C)C[C@H]1Oc2cc(C#CC3(O)CCCC3)ccc2S(=O)(=O)N([C@H](C)CO)C[C@H]1C,0.9,4.6,-2.6,i,-2.2
Cc1noc(C)c1S(=O)(=O)Nc1ccc2c(c1)C(=O)N([C@H](C)CO)C[C@H](C)[C@@H](CN(C)C(=O)Nc1ccc(C(F)(F)F)cc1)OCCCC[C@H](C)O2,0.5,-1.6,2.0,i,5.7
C[C@@H]1CN([C@H](C)CO)C(=O)Cc2cc(N(C)C)ccc2O[C@@H]1CN(C)Cc1ccc(C(=O)O)cc1,2.6,1.5,0.1,i,-0.1
COC(=O)[C@]12CCCCC=C1N(CCc1ccc(OC)c(OC)c1)C(=O)[C@H](CC(=O)N1CCN(C(=O)c3ccco3)CC1)C2,-15.7,-4.6,1.8,i,4.2
CC(C)CC#Cc1ccc2c(c1)O[C@H](CN(C)CC1CC1)[C@H](C)CN([C@@H](C)CO)S2(=O)=O,-6.2,-22.9,13.8,i,-2.7
C[C@H](CO)N1C[C@H](C)[C@@H](CN(C)C(=O)c2cccnc2)Oc2cc(-c3cccc(C#N)c3)ccc2S1(=O)=O,-3.6,-4.3,-0.6,i,4.1
COc1ccccc1NC(=O)N[C@H]1CC[C@H](CCNC(=O)Cc2ccccn2)O[C@@H]1CO,-1.0,-0.3,0.5,i,-0.4
CCC[C@H]1CN(c2ccc(Br)cc2)C(=O)[C@@H]1CC(=O)Nc1ccc(OC)cc1,0.0,-10.8,-1.8,i,-7.6
O=C(C[C@@H]1CC[C@@H]2[C@H](COC[C@H](O)CN2C(=O)Nc2ccc(C(F)(F)F)cc2)O1)NC1Cc2ccccc2C1,-60.4,-80.0,-17.7,i,-5.0
CC(C)NC(=O)NCC[C@@H]1CC[C@H](NC(=O)CN(C)C)[C@@H](CO)O1,3.2,-2.1,-0.3,i,2.8
COc1ccc2c3c([nH]c2c1)[C@H](CO)N(C(=O)NC(C)C)CC31CCN(C(=O)NC2CCCC2)CC1,-5.0,-1.5,-3.4,i,-7.7
CO[C@@H]1CC[C@H]2CCN(C)C(=O)C[C@H](c3ccccc3)CN(C)C(=O)c3cc(C#N)ccc3OC[C@@H]1O2,0.3,2.9,-0.2,i,1.5
Cc1cc(C(=O)Nc2cccc3c2O[C@@H](CN(C)Cc2ccc(C(F)(F)F)cc2)[C@@H](C)CN([C@@H](C)CO)C3=O)n(C)n1,-6.3,-3.7,3.4,i,0.0
O=C(Cn1cc(C(=O)C(=O)N2CCOCC2)c2ccccc21)Nc1cccc(C(F)(F)F)c1,1.2,-18.1,6.1,i,-1.2
O=C(Nc1nccs1)[C@@H]1[C@@H](CO)[C@@H]2Cn3c(cccc3=O)[C@@H]2N1C(=O)C1CCCCC1,0.1,2.8,-0.6,i,-3.6
CCOC(=O)C1=CCN(S(=O)(=O)c2ccccc2Br)C1c1ccc(Br)cc1 (centres undefined),4.5,-5.3,-1.2,i,-2.2
C[C@@H]1CN([C@@H](C)CO)C(=O)c2cc(NC(=O)c3ccncc3)ccc2O[C@@H](C)CCCCO[C@@H]1CN(C)C(=O)Cc1ccccc1,4.4&-1.2,7.5&-2.0,-2.6&-2.8,i,-3.2&-2.2
C[C@H]1CN([C@@H](C)CO)C(=O)CCCn2nncc2CO[C@@H]1CN(C)Cc1ccc(-c2ccccc2)cc1,-6.8&-2.9,-22.3&-3.6,7.6&3.8,i,4.1&4.0
COc1ccccc1CN1CC2(C1)[C@H](c1ccccc1)[C@@H](CO)N2Cc1ccccc1,-3.8,6.8,6.6,i,6.7
CCCNC(=O)C[C@H]1CC[C@H]2[C@@H](COc3ccc(NC(=O)c4cccc(Cl)c4)cc3C(=O)N2C)O1,2.8,6.5,-0.3,i,0.2
N=C1CCCC1C(=S)SCCC(N)=O (centres undefined),2.6,6.7,0.9,i,-2.1
COc1ccccc1-c1cn(CC[C@@H]2CC[C@H](NC(=O)CCN3CCCCC3)[C@@H](CO)O2)nn1,-0.7,-2.4,-0.3,i,1.4
C[C@@H]1CN([C@H](C)CO)C(=O)c2cccc(NC(=O)c3ccc(-c4nccs4)cc3)c2O[C@@H]1CN(C)S(=O)(=O)c1ccccc1,-1.3,6.0,-0.2,i,-0.7
C[C@@H]1CN([C@H](C)CO)C(=O)c2cc(NS(=O)(=O)c3cn(C)cn3)ccc2O[C@@H]1CN(C)CC1CC1,4.4,6.6,-1.5,i,-14.9
COc1ccc(NC(=O)N2CC[C@@H]3[C@H]2c2cc(Br)ccc2N(C)[C@@H]3CO)cc1,-5.0,-4.9,0.9,i,2.1
CO[C@@H]1CN(C)C(=O)c2cc(NC(=O)C3CCC3)ccc2OC[C@@H](C)N(Cc2ccncc2)C[C@H]1C,-2.6,-0.7,-0.5,i,-2.8
CC(C)CC#Cc1ccc2c(c1)O[C@@H](CN(C)C(=O)C1CCCCC1)[C@@H](C)CN([C@@H](C)CO)S2(=O)=O,0.9,-5.5,2.9,i,3.7
COc1ccccc1NC(=O)N1C[C@@H]2[C@H](c3ccccc31)[C@H](CO)N2C(=O)C1CCCC1,-3.1,3.1,0.0,i,2.1
C[C@@H]1CN([C@@H](C)CO)S(=O)(=O)c2ccc(-c3ccc(C#N)cc3)cc2O[C@@H]1CN(C)C,1.8,2.6,-1.2,i,1.0
CC[C@H](CO)Oc1cc(NCc2cccc(N)c2)c2ncn(C(C)C)c2c1,-5.0,2.4,-2.1,i,11.3
CCOC(=O)C1=CCN(S(=O)(=O)c2ccccc2C)C1c1ccccc1 (centres undefined),-13.3,-43.6,-13.1,i,1.3
CN(C)CCCNC(=O)C[C@@H]1CC[C@@H]2[C@H](COc3ccc(NC(=O)c4ccc5c(c4)OCO5)cc3C(=O)N2C)O1,2.3,7.4,-4.9,i,0.9
C[C@H]1CN([C@@H](C)CO)C(=O)c2cc(NC(=O)NC3CCCCC3)ccc2O[C@@H]1CN(C)Cc1ccc(C(=O)O)cc1,3.0,0.6,-2.9,i,-2.9
COc1ccc(NC(=O)Nc2ccc3c(c2)C(=O)N([C@@H](C)CO)C[C@@H](C)[C@H](CN(C)C(=O)Nc2c(C)noc2C)OCCCC[C@H](C)O3)cc1,-0.4,2.4,1.4,i,0.0
Cc1ccc(S(=O)(=O)N[C@H]2CC[C@@H](CCNC(=O)Nc3ccc(Cl)cc3)O[C@H]2CO)cc1,-61.7,-75.5,-18.9,i,13.5
CCCN1C[C@@H](C)[C@H](OC)CN(C)C(=O)c2ccc(NC(=O)c3cnccn3)cc2OC[C@@H]1C,0.9,0.5,-2.3,i,-2.3
CCCNC(=O)C1(C)CCN(Cc2ccc(-c3ccccc3)o2)C1 (centres undefined),6.7,11.7,3.6,i,3.4
Cc1ccc(S(=O)(=O)Nc2cccc3c2O[C@H](CN(C)C(=O)Nc2ccc4c(c2)OCO4)[C@@H](C)CN([C@@H](C)CO)C3=O)cc1,0.9,1.5,-0.7,i,-0.7
CCNC(=O)c1cc2c(c(-c3cccc(-c4cncnc4)c3)n1)[C@@H](CCO)N(C(C)=O)C2,-1.0&1.8,2.9&8.6,-2.4&-4.3,i,-21.5&1.7
CCCNC(=O)N(C)C[C@@H]1Oc2ncc(C#CCC(C)C)cc2C(=O)N([C@@H](C)CO)C[C@H]1C,4.7,4.2,-2.3,i,-3.3
O=C(C[C@H]1CC[C@@H]2[C@H](COC[C@H](O)CN2CC2CCOCC2)O1)N1CCOCC1,-1.0,-1.0,-1.6,i,-7.5
CCOC(=O)[C@]12CCC=C1N(Cc1ccc3c(c1)OCO3)C(=O)[C@H](CC(=O)N1CCN(C(=O)c3ccco3)CC1)C2,6.8,9.6,4.3,i,-0.1
C[C@H]1CN([C@@H](C)CO)C(=O)c2cc(NS(C)(=O)=O)ccc2O[C@@H]1CN(C)C(=O)NC1CCCCC1,0.2,-4.6,-0.7,i,-3.2
COc1ccc2c3c(n(C)c2c1)[C@H](CO)N(C(=O)c1ccc(F)cc1)CC31CN(CC2CC2)C1,-0.3,-2.2,1.3,i,1.1

# Further compounds follow:
SMILES,Ecoli rRNA inh,Ecoli rRNA inh OD600,Ecoli rRNA inh RFP,FGF22 binding,AF4-AF9 inh
O=C(Nc1cccc(F)c1)N1CCCCN2[C@H](CO)[C@@H](c3ccc(C#Cc4ccccc4)cc3)[C@@H]2C1,7.2,-11.3,0.8,i,-4.3
CCOC(=O)C1(C)CCCCCN1C(=O)c1ccc(N(C)C)cc1 (centres undefined),-4.8,-10.8,0.9,i,4.4
O=C(c1ccc(F)cc1)N1CC(=O)N2[C@H](CO)[C@H](c3ccc(C#CCC4CCCC4)cc3)[C@H]2C1,0.5,-17.4,4.7,i,0.8
COc1ccccc1NC(=O)N[C@H]1C=C[C@@H](CC(=O)N[C@@H](C)c2ccccc2)O[C@H]1CO,-0.8,0.2,0.1,i,-1.3
Cc1noc(C)c1NC(=O)N(C)C[C@H]1OCCCC[C@@H](C)Oc2ccc(NS(=O)(=O)c3cccs3)cc2C(=O)N([C@H](C)CO)C[C@H]1C,-1.2,2.9,-1.9,i,-0.5
C[C@@H]1CCCCO[C@@H](CN(C)C(=O)NC2CCCCC2)[C@@H](C)CN([C@H](C)CO)C(=O)c2cc(NC(=O)Cc3ccccc3)ccc2O1,5.9,6.4,0.3,i,-0.3
Cc1noc(C)c1S(=O)(=O)N(C)C[C@@H]1OCCCC[C@@H](C)Oc2ccc(NC(=O)CCCCCC(=O)Nc3ccccc3N)cc2C(=O)N([C@H](C)CO)C[C@@H]1C,-2.4,-0.9,2.4,i,2.4
CC(C)NC(=O)N(C)C[C@H]1Oc2ccc(NS(=O)(=O)c3ccc(F)cc3)cc2C(=O)N([C@H](C)CO)C[C@H]1C,2.0,6.0,-0.3,i,1.0
C[C@@H]1CN([C@H](C)CO)S(=O)(=O)c2ccc(-c3cccnc3)cc2O[C@@H]1CN(C)CC1CC1,8.0,4.2,-1.7,i,-3.7
Cc1ccnc(Nc2ccc(CCO)cc2)n1,9.9,7.7,0.6,i,1.0
c1cc2cc(CNc3nc(NCC4CC4)nc4ccsc34)ccc2o1,-59.1,-80.5,-23.2,i,3.8
Cc1ccc(F)c(S(=O)(=O)NC(=O)C2(C)CCN2C(=O)c2ccc(C(F)(F)F)nc2C)c1 (centres undefined),20.4,19.0,0.4,i,-5.8
CC(=O)OC[C@@H]1CN(Cc2ccccc2)C[C@H](n2cnc3c(NCC(C)C)ncnc32)O1,-4.8,7.5,-2.1,i,3.4
C[C@H]1CN([C@@H](C)CO)C(=O)c2cccc(NC(=O)Nc3ccccc3)c2O[C@H]1CN(C)Cc1ccc(-c2ccccc2)cc1,-1.0,-1.3,2.0,i,1.5
Cc1noc(C)c1S(=O)(=O)Nc1ccc2c(c1)C(=O)N([C@@H](C)CO)C[C@@H](C)[C@@H](CN(C)Cc1ccncc1)OCCCC[C@H](C)O2,0.0,-1.2,2.6,i,1.2
COc1ccc(CN(C)C[C@@H]2OCCCC[C@@H](C)Oc3ccc(NC(=O)Nc4ccc(C(F)(F)F)cc4)cc3C(=O)N([C@@H](C)CO)C[C@H]2C)cc1,2.5,-4.2,0.9,i,6.4
C[C@@H]1CN([C@H](C)CO)C(=O)c2cc(NC(=O)C3CC3)ccc2O[C@H]1CN(C)C,-1.4,3.0,-0.2,i,-0.8
N#C[C@@H]1[C@H](c2ccc(-c3cncnc3)cc2)[C@H](CO)N1C(=O)C1CC1,1.7,-0.3,2.2,i,-0.8

# 4 records picked at random from the list so far, as already listed:
SMILES,Ecoli rRNA inh,Ecoli rRNA inh OD600,Ecoli rRNA inh RFP,FGF22 binding,AF4-AF9 inh
Cc1noc(C)c1S(=O)(=O)Nc1ccc2c(c1)C(=O)N([C@@H](C)CO)C[C@@H](C)[C@@H](CN(C)Cc1ccncc1)OCCCC[C@H](C)O2,0.0,-1.2,2.6,i,1.2
Cc1ccc(F)c(S(=O)(=O)NC(=O)C2(C)CCN2C(=O)c2ccc(C(F)(F)F)nc2C)c1 (centres undefined),20.4,19.0,0.4,i,-5.8
N#C[C@@H]1[C@H](c2ccc(-c3cncnc3)cc2)[C@H](CO)N1C(=O)C1CC1,1.7,-0.3,2.2,i,-0.8
c1cc2cc(CNc3nc(NCC4CC4)nc4ccsc34)ccc2o1,-59.1,-80.5,-23.2,i,3.8

# This is a subset; the hit share may differ from the screen's.
